Cruzain Triton = inhibitors of Trypanosoma cruzi cruzain with detergent; P25779; purified cruzain, Z-FR-AMC fluorescence, 0.01% Triton; Potency, µM, inactives show max response, negative = inhibition, hits mostly inhibitors; 200,000 compounds, 0.43% hits; AID 1478;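 further: plate controls were neutral wells for no effect and buffer without enzyme for full effect; nearly all actives have a fitted effect of over 40% in size; top concentration of the series not given in the record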
Target sequence (P25779 123-467 limits assumed): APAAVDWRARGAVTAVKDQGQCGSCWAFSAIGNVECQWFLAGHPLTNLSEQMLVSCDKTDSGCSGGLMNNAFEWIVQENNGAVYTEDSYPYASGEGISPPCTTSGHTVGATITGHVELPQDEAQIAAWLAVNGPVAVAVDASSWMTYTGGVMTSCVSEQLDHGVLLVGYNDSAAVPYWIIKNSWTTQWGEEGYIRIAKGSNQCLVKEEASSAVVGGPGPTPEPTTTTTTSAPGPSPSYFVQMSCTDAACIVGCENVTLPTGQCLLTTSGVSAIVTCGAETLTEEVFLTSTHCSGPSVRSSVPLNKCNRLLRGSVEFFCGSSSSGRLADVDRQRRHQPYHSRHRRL
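15 min RT preincubation of 1.5 nM cruzain with compound, then 2 uM Z-FR-AMC added; kinetic AMC fluorescence, 60 s delta. Triton X-100 0.01%, pH 5.5.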
NS1 function inh = influenza NS1 inhibition. S. cerevisiae slowed by influenza A NS1, growth recovery by OD600. Potency, µM (series often up to 46.1 µM), for inactives: at the top dose activity, positive = more growth. 270,000 compounds, 0.4% hits. AID 2326; active means well fitted rising curve with a large enough effect; inconclusive means small, poorly fitted or top-dose-only effect; inactive means no such curve, though single readings can be large or run the other way; further: nearly all actives have a fitted effect of over 50% in size
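OD600 was taken as the measure of yeast growth restored by compound in an NS1-expressing S. cerevisiae strain. Cells had been washed out of glucose medium and diluted 1:100 into galactose -URA medium, pH 6.0.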
Cruzain inh noDet = blocks cruzain activity in detergent-free assay; purified cruzain, Z-FR-AMC fluorescence, no detergent; Potency, µM, for the others: max response, negative = inhibition, most hits filed as inhibitors; 200,000 compounds, 2.3% hits; AID 1476;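 further: plate controls were enzyme without inhibitor for no effect and buffer without enzyme for full effect; nearly all actives have a fitted effect of over 40% in size; top concentration of the series not given in the record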
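Purified cruzain at 1.5 nM, pre-incubated 15 min with compound at room temperature in 100 mM sodium acetate pH 5.5, 5 mM DTT, 0.00005% Triton X-100. Reaction started with 2 uM Z-FR-AMC; AMC fluorescence increase over 60 s gives rate.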
RE007 growth inh = less growth of the S. pombe RE007 Vpr strain | S. pombe RE007 Vpr strain, BacTiter-Glo ATP luminescence, 24 h; control for the full effect not named in the record | 360,000 compounds, 0.21% hits | Potency, µM (top dose mostly 92.2 µM), for inactives: at the highest dose activity change, negative = less growth; active = well fitted falling curve with a large enough effect; inconclusive = small, poorly fitted or top-dose-only effect; inactive = no such curve, though single readings can be large or run the other way;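 further: on the % scale 0 is the no-effect control and ±100 the full control effect; nearly all actives have a fitted effect of over 50% in size; the assay follows cell death caused by Vpr and the record does not say whether a fall means rescue or toxicity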
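Fission yeast RE007 carrying one integrated HIV-1 vpr copy, seeded at OD 0.01 in PMG+AL medium with 23 nL pinned compound. Grown 24 h at 30 degrees; viability read by BacTiter-Glo luminescence after 5 min.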
SARS PLpro yeast = SARS-CoV PLP inhibition in yeast; AID 485353; S. cerevisiae expressing SARS-CoV PLpro, growth rescue; control for the full effect not named in the record; 330,000 compounds, 0.19% hits; Potency, µM (series often up to 32.9 µM), without a hit: at the top dose activity, positive = growth rescue; active means well fitted rising curve with a large enough effect; inconclusive means small, poorly fitted or top-dose-only effect; inactive means no such curve, though single readings can be large or run the other way; further: 0% is about no effect; nearly all actives have a fitted effect of over 55% in size; growth read by luminescence after 48 h
MARV entry inh = Marburg virus entry inhibition; Marburg virus pseudotyped entry inhibition, cell reporter; control for the full effect not named in the record; about a third of the inactives were read at about 46 µM; Potency, µM (top dose mostly 37.8 µM), for inactives: at the highest dose activity change, negative = inhibition, actives largely listed as inhibitors; 300,000 compounds, 1.8% hits; active = well fitted inhibition curve with a large enough effect; inconclusive = small, poorly fitted or top-dose-only effect, or effect the other way; inactive = flat fitted curve, though single readings scatter; tested in HEK293 cells; about a fifth of its hits are not listed in these tables; further: on the % scale 0 is the no-effect control and ±100 the full control effect; luciferase read-out
StopGo reporter = FMDV 2A StopGo reporter, luciferase signal | human cells with a luciferase reporter of 2A StopGo recoding; control for the full effect not named in the record | Potency, µM (titrated, usually from 57.9 µM), for the others: at the top dose signal change, negative = less light | 410,000 compounds, 1.2% hits; active = well fitted falling curve with a large enough effect; inconclusive = small, poorly fitted or top-dose-only effect; inactive = no such curve, though single readings can be large or run the other way; tested in HEK293T cells; further: on the % scale 0 is the no-effect control and ±100 the full control effect; nearly all actives have a fitted effect of over 45% in size; luciferase light after 4 h
LASV entry inh = Lassa virus entry inhibition; Lassa virus pseudotype entry inhibition, cell reporter; control for the full effect not named in the record; 300,000 compounds, 1.2% hits; Potency, µM (titrated, usually from 37.9 µM), inactives show at the highest dose activity change, negative = inhibition, usual class: inhibitors; AID 540256; active means well fitted inhibition curve with a large enough effect; inconclusive means small, poorly fitted or top-dose-only effect, or effect the other way; inactive means flat fitted curve, though single readings scatter; tested in HEK293 cells; further: on the % scale 0 is the no-effect control and ±100 the full control effect; nearly all actives have a fitted effect of over 50% in size; luciferase read-out
* marks the source's active call; other numbers are inactive results; ? = inconclusive; nt = not tested or not shown; & = joins results of further samples; [ ] = another dose, or the depositor's remark. Unless noted, the call rests on the fitted dose curve; in most records, active means well fitted curve in the direction sought with a large enough effect; inconclusive means small, poorly fitted or top-dose-only effect, or another doubt; inactive means no such curve, though single readings can be large; an effect the other way counts as inactive or inconclusive. Potency means the concentration at half of the fitted maximal effect.

Molecule,Cruzain Triton,NS1 function inh,Cruzain inh noDet,RE007 growth inh,SARS PLpro yeast,MARV entry inh,StopGo reporter,LASV entry inh
CC(C)OP(=O)(OC(C)C)C(O)c1cccnc1 (stereo unspecified),-2.1%,8%,-4%,1%,-5%,7%,-12%,-2%
Cc1cc(C)cc(OCc2nnc(SCC(=O)Nc3ccccc3)o2)c1,0.0%,24%,5%,-5%,5%,-5%,-5%,2%
S=C(NCCCN1CCOCC1)Nc1ccc(Cl)cc1Cl,0.9%,6%,2%,-7%,-11%,32%,-21%,15%
N#CC1=C(N)OC2=C(C(=O)CCC2)C1C1C=CCCC1 (stereo unspecified),-2.7%,5%,0%,-11%,17%,1%[46.1 µM],-23%,-3%
CCOc1ccc(N(C)C(=O)C2CCN(S(=O)(=O)c3ccc4c(c3)CCCN4C(C)=O)CC2)cc1,-1.0%,nt,?,nt,nt,nt,?,-1%[46.1 µM]
O=C1CC(c2ccco2)CC(O)=C1C=NCCN1CCN(C(=S)Nc2ccccc2)CC1 (stereo unspecified),nt,-1%,nt,-12%,2%,8%,-10%,2%
CCC(Cc1ccccc1)NS(=O)(=O)c1c(C)nc2sccn2c1=O (stereo unspecified),nt,3%,nt,-5%,-2%,nt,-26%,nt
Cc1nc(-c2cccc(S(=O)(=O)N3CCCC(C)C3)c2)cs1 (stereo unspecified),-2.8%,-11%,-13%,-13%,-17%,-27%,-6%,-15%
CC1(C)CC(=O)C=C(Nc2cc(-c3ccccc3)[nH]n2)C1,-0.7%,9%,-1%,6%,2%,1%,21%,-5%
Cc1ccccc1C(=O)NC1CCN(Cc2nnnn2Cc2ccc(F)cc2)CC1,1.6%,-11%,8%,-3%,5%,-1%,-19%,-6%
COc1ccc(-n2nc(C(=O)N3CCCCC3C)c3c4ccccc4n(C)c3c2=O)cc1Cl (stereo unspecified),-2.5%,nt,5%,nt,nt,24%[46.1 µM],-3%,18%[46.1 µM]
N/C(=N\c1nc2c(c(=O)[nH]1)CCCC2)Nc1ccccc1,0.7%,-6%,-2%,4%,-3%,4%,11%,-5%
Cc1[nH]c2ccccc2c1C(=O)/C=C/c1ccccc1Cl,-12%,1%,-4%,-5%,9%,?,-20%,?
CCOC(=O)c1ccc(NC(=O)CN(Cc2ccc(Cl)cc2)S(C)(=O)=O)cc1,-7.0%,5%,0%,19%,-15%,-5%,?,-17%
CC(C#N)(NC(=O)COC(=O)c1ccccc1NCCO)C1CC1 (stereo unspecified),nt,nt,nt,9%,-5%,25%,-2%,14%

(list continues)
Molecule,Cruzain Triton,NS1 function inh,Cruzain inh noDet,RE007 growth inh,SARS PLpro yeast,MARV entry inh,StopGo reporter,LASV entry inh
CCC(=O)c1ccc(OCC(=O)N2CCN(c3ncccn3)CC2)cc1,nt,nt,nt,9%,1%,?,-21%,-4%
CCc1cccc(N2C(=O)CSC23C(=O)N(Cc2ccccc2F)c2ccccc23)c1 (stereo unspecified),-7.8%,nt,6%,nt,nt,nt,?,10µM*
COc1cccc(-c2onc3ccc(C4(C)OCCO4)cc23)c1,nt,nt,nt,-11%,-2%,?,?,?
O=C(CC1Sc2ccccc2NC1=O)Nc1cccc(C(=O)O)c1 (stereo unspecified),0.6%,-12%,-1%,22%,-5%,-4%,?,-2%
COc1cc2c(cc1OC)C(c1cccs1)NCC2 (stereo unspecified),-0.3%,-2%,3%,2%,-1%,-11%,-17%,2%
COc1ccc(-c2nc(-c3ccccc3)[nH]c(=O)c2C#N)cc1,-9.9%,?,?,23%,4%,2%,16%,-8%
COc1ccc(S(=O)(=O)NC(C)C(=O)Nc2cccc([N+](=O)[O-])c2)cc1 (stereo unspecified),-5.7%,7%,-6%,16%,-7%,-9%,-7%,8%
CC(C)(C)c1csc(NNC(=O)c2ccc(Br)cc2)n1,nt,nt,nt,?,-23%,?,-4%,?
CC(C)COc1nc2ccccc2nc1C(C#N)C(=O)NC1CCCCC1 (stereo unspecified),-3.2%,14%,?,0%,-8%,-1%,-15%,-3%
COc1cccc(C2=C(C(C)=O)Sc3nnc(C4CCCCC4)n3N2C(C)=O)c1,-3.1%,nt,?,nt,nt,nt,0%,?
Cc1onc(-c2ccccc2)c1C(=O)N/N=C/c1cc(Br)c(Br)o1,-7.6%,8%,2%,10%,-28%,?,25µM*,?
Cc1cc(C)nc(NS(=O)(=O)c2ccc(N3C(=O)C4C5C=CC(C5)C4C3=O)cc2)n1 (stereo unspecified),-1.3%,-5%,18%,16%,6%,11%,37%[activator],13%
CCc1ccc(OCC(=O)N2CCN(c3ccccn3)CC2)c(Br)c1,nt,-49%,nt,?,-7%,15%,-26%,23%
Cc1ccc(CNC(=O)CSc2ncc3c(n2)-c2ccc(Cl)cc2N(Cc2ccccc2)S3(=O)=O)cc1,-0.3%,nt,-7%,nt,nt,nt,-9%,?
Cc1cc(C)n(C(=O)c2ccc(S(=O)(=O)N3CCOCC3)cc2)n1,1.3%,-2%,8%,16%,1%,15%,-7%,11%

(more compounds)
Molecule,Cruzain Triton,NS1 function inh,Cruzain inh noDet,RE007 growth inh,SARS PLpro yeast,MARV entry inh,StopGo reporter,LASV entry inh
O=C(NNC(=O)c1ccccc1-n1cccc1)c1cccc(Cl)c1,-0.2%,8%,11%,6%,-1%,-27%[46.1 µM],24%,3%
O=C(CN(C(=O)c1ccc(Cl)cc1)C1CCCCC1)Nc1ccc(Cl)c([N+](=O)[O-])c1,-8.0%,0%,?,-8%,-2%,?,?,?
CC1CCCCC1NC(=O)CCS(=O)(=O)c1ccc2c(c1)NC(=O)CO2 (stereo unspecified),nt,-2%,nt,1%,-2%,nt,-1%,nt
Cc1cccc(OCCSc2nc3ccccc3n2CCC(=O)O)c1,nt,8%,nt,-13%,2%,nt,13%,nt
CCN(Cc1ccccc1)C(=O)COC(=O)CNS(=O)(=O)c1ccc(C)cc1,-4.9%,-1%,17%,-15%,-32%,?,-11%,1%
CCCCC(=O)Nc1cccc(-c2nn3c(C)nnc3s2)c1,-2.4%,11%,0%,-9%,-4%,-16%,-1%,4%
COc1ccccc1CC(=O)NN1C(=O)c2ccccc2C1=O,-0.2%,5%,-14%,13%,-6%,?,-14%,2%
CC1=C(C(=O)Nc2ccccc2)C(c2sccc2C)n2nnnc2N1 (stereo unspecified),1.4%,14%,-3%,nt,16%,nt,nt,nt
C=CCn1c(SCCOc2ccc(OC)cc2)nnc1C(NC(=O)c1ccc(OC)cc1)C(C)C (stereo unspecified),-3.4%,-5%,?,2%,-4%,?,?,2%
COc1ccc(Cl)cc1NC(=O)C/C(C)=N/NC(=O)Cc1ccccc1,nt,1%,nt,-17%,-2%,-10%[46.1 µM],7%,-4%
COc1ccc(C2/C(=C(/O)c3ccccc3)C(=O)C(=O)N2c2ncccn2)cc1OC (stereo unspecified),-8.4%,3%,-13%,-7%,20%,1%&4%,-10%,-6%&10%
CCOC(=O)COc1cccc(C2NC(=O)c3ccccc3O2)c1 (stereo unspecified),nt,12%,nt,2%,3%,nt,-12%,nt
Cc1sc2ncn(CC(=O)N3CCN(c4ccc(Cl)cc4)CC3)c(=O)c2c1S(=O)(=O)N1CCN(c2ncccn2)CC1,-3.4%,nt,?,nt,nt,6%[46.1 µM],?,-10%[46.1 µM]
Cc1cc(C)cc(C(=O)N(CCc2ccccc2)C2CC3CCC(C2)N3C)c1 (stereo unspecified),nt,-4%,nt,0%,3%,3.2µM*,-12%,?
O=c1cc[nH]c2cc(Cl)ccc12,-1.9%,-6%,-2%,-10%,5%,23%,-13%,-1%

More entries:
Molecule,Cruzain Triton,NS1 function inh,Cruzain inh noDet,RE007 growth inh,SARS PLpro yeast,MARV entry inh,StopGo reporter,LASV entry inh
COc1cc(C(=O)N(Cc2cc3ccccc3[nH]c2=O)CC2CCCO2)cc(OC)c1OC (stereo unspecified),3.6%,-3%,-2%,-2%,-7%,1%&1%,6%,5%
CCCNC(=O)Cn1nc(C)c2c(C)n(-c3ccccc3)nc2c1=O,-2.3%,nt,-7%,nt,nt,nt,-12%,1%[46.1 µM]
Cc1ccc(Cl)cc1Nc1nc(-c2cccnc2)cs1,nt,-85%,nt,-11%,-17%,nt,1%,nt
O=C(c1cc2cc(Cl)ccc2[nH]1)N1CCN(c2ccc(F)cc2)CC1,nt,-3%,nt,3%,1%,-14%[46.1 µM],20%,4%[46.1 µM]
Cc1cccc(-n2c(=O)c3c(c4cc(C)ccc4n3C)n(CC(=O)Nc3ccccc3Cl)c2=O)c1,-0.5%,nt,0%,nt,nt,nt,-11%,24%[46.1 µM]
COc1ccc(C(=O)c2ccc(Br)cc2)c(OC)c1OC,nt,nt,nt,-2%,nt,-2%,-22%,-1%
CC(=O)NC(C(=O)c1ccccc1)C(=O)c1ccccc1,nt,nt,nt,14%,8%,1%,-2%,4%
COc1cc2c(cc1NC(=O)c1cccc([N+](=O)[O-])c1)oc1ccccc12,-1.3%,7%,16µM*,-3%,0%,?,13µM*,?
Cc1cccc(-c2noc(CCC(=O)NC3CCCCC3)n2)c1,nt,-29%,nt,1%,-6%,nt,?,nt
O=C(c1ccc2nc(N3CCOCC3)sc2c1)N1CCN(c2ccc(Cl)cc2)CC1,nt,-3%,nt,-13%,1%,14%[46.1 µM],26%,-28%[46.1 µM]
Cc1ccc(N(C)S(=O)(=O)c2cccc(C(=O)NCC(c3cccs3)N3CCOCC3)c2)cc1 (stereo unspecified),nt,nt,nt,-3%,-7%,-30%,3%,-15%
O=C(COC(=O)c1ccc(S(=O)(=O)Nc2ccccc2)cc1)NCCN1C(=O)CSC1=O,-1.2%,-13%,10%,1%,1%,12%&12%,4%,-4%
O=C(CSc1n[nH]c(-c2ccccc2)n1)NCCCc1ccccc1,2.0%,nt,-3%,nt,nt,nt,-24%,-4%[46.1 µM]

Bioassay records deposited in PubChem BioAssay by National Center for Advancing Translational Sciences (NCATS).
